c-Myc SMM: binders of human c-Myc | P01106 | small molecule microarray, His-c-Myc binding, anti-His fluorescence | 17,000 compounds, 1.5% hits | calls only;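 active = spot fluorescence over background with P-value below 7% in all four replicate spots, showing protein binding; compounds were printed on slides so no solution concentration is given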;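 note: score is binary with 100 for all four spots passing and 0 otherwise; about 2 pmol printed per array spot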
Target sequence (P01106 whole entry, looked up): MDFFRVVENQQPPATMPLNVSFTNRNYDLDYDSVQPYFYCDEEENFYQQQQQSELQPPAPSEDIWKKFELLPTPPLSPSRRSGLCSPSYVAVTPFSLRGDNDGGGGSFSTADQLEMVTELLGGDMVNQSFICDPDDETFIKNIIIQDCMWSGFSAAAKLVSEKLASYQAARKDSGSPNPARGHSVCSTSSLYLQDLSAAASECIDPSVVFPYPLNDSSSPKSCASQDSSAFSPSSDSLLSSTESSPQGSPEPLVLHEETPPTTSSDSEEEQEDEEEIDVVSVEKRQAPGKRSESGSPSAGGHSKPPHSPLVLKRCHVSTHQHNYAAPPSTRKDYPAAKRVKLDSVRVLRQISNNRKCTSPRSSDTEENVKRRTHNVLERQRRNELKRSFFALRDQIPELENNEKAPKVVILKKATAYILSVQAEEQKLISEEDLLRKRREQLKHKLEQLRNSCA
STAT3 SMM: binds human STAT3 on microarray; Small molecule microarray, His-STAT3 binding, anti-His fluorescence; P40763; 17,000 compounds, 0.2% hits; calls only;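 active = compounds whose four printed spots each show fluorescence over background unusually high for their array block, chance value under 7%; compounds were printed on slides so no solution concentration is given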;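 note: about 2 pmol printed per array spot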
ID4 binder: ID4 (human) binding | P47928 | small molecule microarray, Flag-ID4 binding, fluorescence F/B | calls only | AID 624137 | 31,000 compounds, 1.2% hits;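 active = spot signal over background at p below 0.07 in all four prints; compounds were printed on slides so no solution concentration is given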;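 note: a binder raises fluorescence above local background on the spot; about 2 pmol printed per array spot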
Target sequence (P47928 whole entry, looked up): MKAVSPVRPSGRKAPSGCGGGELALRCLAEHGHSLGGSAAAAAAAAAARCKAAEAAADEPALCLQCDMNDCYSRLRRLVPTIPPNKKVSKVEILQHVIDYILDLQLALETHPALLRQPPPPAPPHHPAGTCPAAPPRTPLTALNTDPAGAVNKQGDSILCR
mut p53 SMM: binders of human mutant p53 | calls only | 17,000 compounds, 0.4% hits | small molecule microarray binding, anti-GST fluorescence;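 active = compounds whose four printed spots each glow above background more than chance allows, each with a p-value under 7%; compounds were printed on slides so no solution concentration is given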;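 note: about 2 pmol printed per array spot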
Calls only; i = inactive; . = not tested or not shown.

Value order: ID4 binder	STAT3 SMM	mut p53 SMM	c-Myc SMM
> CC(C)NC(=O)Nc1ccc2c(c1)C(=O)N([C@@H](C)CO)C[C@H](C)[C@H](CN(C)C(=O)Nc1ccccc1)OCCCC[C@H](C)O2
 : i	i	i	i
> O=C(CN1C(=O)c2ccccc2C1=O)NCC1COc2ccccc2O1 (configuration not stated)
 : i	i	i	i
> CCOc1ccccc1OCC(=O)Nc1sc2c(c1C#N)CCC(C)C2 (configuration not stated)
 : i	i	i	i
> Cc1noc(C)c1S(=O)(=O)Nc1cccc2c1O[C@H](CN(C)CC1CC1)[C@H](C)CN([C@@H](C)CO)C2=O
 : i	i	i	i
> C[C@H](CO)N1C[C@H](C)[C@H](CN(C)Cc2ccc(C(=O)O)cc2)Oc2ccc(NS(=O)(=O)c3ccccc3)cc2C1=O
 : .	i	i	i
> COc1cc([C@H]2OC[C@H]3[C@@H]2CO[C@H]3c2ccc(OC)c(OC)c2)ccc1O
 : .	i	i	i
> COCCOC(=O)N1C(=O)[C@@]2(c3cc(C#CC4=CCCCC4)ccc31)[C@H](C(=O)N1CCN(c3ncccn3)CC1)[C@H]1C(=O)O[C@H](c3ccccc3)[C@H](c3ccccc3)N1[C@@H]2c1ccc(O)cc1
 : .	i	i	i
> CC(C)NC(=O)Nc1ccc2c(c1)C(=O)N([C@H](C)CO)C[C@@H](C)[C@@H](CN(C)Cc1ccc(C(=O)O)cc1)OCCCC[C@@H](C)O2
 : i	i	i	i
> C[C@@H]1CN([C@H](C)CO)C(=O)Cc2cc(NC(=O)CCC(F)(F)F)ccc2O[C@@H]1CN(C)S(=O)(=O)c1ccccc1
 : i	i	i	i
> Cc1noc(C)c1NC(=O)Nc1ccc2c(c1)C(=O)N([C@H](C)CO)C[C@H](C)[C@@H](CN(C)C(=O)CCCN(C)C)OCCCC[C@H](C)O2
 : i	i	i	i
> CNC[C@@H]1Oc2ccc(NS(=O)(=O)c3cn(C)cn3)cc2CC(=O)N([C@@H](C)CO)C[C@@H]1C
 : i	i	i	i
> C[C@@H]1CN([C@H](C)CO)C(=O)c2cccc(NC(=O)Nc3ccccc3)c2O[C@@H]1CN(C)C
 : .	i	i	i
> C[C@@H]1O[C@@H](O[C@@H]2[C@@H](O)[C@H](O)[C@@H](CO)O[C@H]2c2c(O)cc(O)c3c(=O)cc(-c4ccc(O)cc4)oc23)[C@H](O)[C@H](O)[C@H]1O
 : .	i	i	i
> COC(=O)C1=COC(O[C@@H]2O[C@H](CO)[C@@H](O)[C@H](O)[C@H]2O)[C@H]2[C@@H]1[C@H](OC(=O)CCc1ccc(O)cc1)C[C@]2(C)O (some centres not stated)
 : i	i	i	i
> CCOC(=O)c1ccc(NC(=O)CSc2nc3ccccc3c(=O)[nH]2)cc1
 : i	i	i	i
> CNc1cc(NS(=O)(=O)c2ccc(N)cc2)nc(NC)n1
 : i	i	i	i
> Cc1noc(C)c1NC(=O)Nc1ccc2c(c1)C(=O)N([C@H](C)CO)C[C@@H](C)[C@@H](CN(C)C)OCCCC[C@@H](C)O2
 : i	i	i	i
> C[C@H]1CCCCO[C@H](CN(C)S(=O)(=O)c2ccccc2)[C@@H](C)CN([C@@H](C)CO)C(=O)c2cc(NC(=O)Nc3ccccc3)ccc2O1
 : i	i	i	i
> COc1ccc(S(=O)(=O)N(C)C[C@@H]2Oc3ncc(/C=C/c4ccccc4)cc3C(=O)N([C@H](C)CO)C[C@@H]2C)cc1
 : i	i	i	i
> Cc1nn(C)cc1CN(C)C(=O)c1nn2c(c1Br)NC(c1cccs1)CC2C(F)(F)F (configuration not stated)
 : i	i	i	i
> COC(=O)c1ccc(NC(=O)CCC(=O)c2ccc(F)cc2)cc1
 : i	i	i	i
> C[C@@H]1CN([C@H](C)CO)C(=O)Cc2cc(NC(=O)Nc3ccc(F)cc3)ccc2O[C@H]1CN(C)CC1CC1
 : i	i	i	i
> C[C@@H]1CN([C@H](C)CO)C(=O)c2cccc(NS(=O)(=O)c3ccc(Cl)cc3)c2O[C@@H]1CN(C)Cc1ccc(-c2ccccc2)cc1
 : .	i	i	i
> O=C1N(CCS(=O)(=O)c2ccccc2)Cc2ccccc2[C@@H]2OC(c3ccc(OCCCO)cc3)=N[C@]12Cc1ccccc1
 : i	i	i	i
> C=CC[C@H](O)c1ccc(O)c(F)c1
 : .	i	i	i
> C[C@H]1CN([C@@H](C)CO)C(=O)c2cc(NC(=O)NC3CCCCC3)ccc2O[C@@H]1CN(C)Cc1ccc2c(c1)OCO2
 : i	i	i	i
> C[C@H]1CN([C@@H](C)CO)C(=O)c2cccc(NC(=O)C3CCOCC3)c2O[C@H]1CN(C)C(=O)Nc1ccc(C(F)(F)F)cc1
 : i	i	i	i
> COc1ccc(S(=O)(=O)N(C)C[C@H]2Oc3c(NS(=O)(=O)c4ccc(C)cc4)cccc3C(=O)N([C@H](C)CO)C[C@@H]2C)cc1
 : .	i	i	i
> Cc1noc(C)c1S(=O)(=O)N(C)C[C@@H]1OCCCC[C@@H](C)Oc2ccc(NC(=O)NC(C)C)cc2C(=O)N([C@H](C)CO)C[C@H]1C
 : i	i	i	i
> C[C@H]1CN([C@@H](C)CO)C(=O)c2cccc(NC(=O)c3ccncc3)c2O[C@@H]1CN(C)S(=O)(=O)c1cn(C)cn1
 : i	i	i	i

Laid out differently: results already given.
molecule	ID4 binder	STAT3 SMM	mut p53 SMM	c-Myc SMM
C[C@@H]1CN([C@H](C)CO)C(=O)c2cccc(NC(=O)Nc3ccccc3)c2O[C@@H]1CN(C)C	.	i	i	i
C[C@@H]1O[C@@H](O[C@@H]2[C@@H](O)[C@H](O)[C@@H](CO)O[C@H]2c2c(O)cc(O)c3c(=O)cc(-c4ccc(O)cc4)oc23)[C@H](O)[C@H](O)[C@H]1O	.	i	i	i

(next part)
Value order: ID4 binder	STAT3 SMM	mut p53 SMM	c-Myc SMM
> C[C@H](CO)N1C[C@H](C)[C@H](CN(C)Cc2ccc(C(F)(F)F)cc2)Oc2c(NS(=O)(=O)c3cn(C)cn3)cccc2C1=O
 : i	i	i	i
> Cc1noc(C)c1S(=O)(=O)N(C)C[C@H]1Oc2ccc(NC(=O)C3CCCCC3)cc2CC(=O)N([C@H](C)CO)C[C@@H]1C
 : i	i	i	i
> Cc1cccc(N(CC(=O)O)S(C)(=O)=O)c1C
 : i	i	i	i
> Cc1cc(O)c2c(c1)C(=O)OC2c1c(O)cccc1O (configuration not stated)
 : i	i	i	i
> COc1ccc(S(=O)(=O)Nc2ccc3c(c2)C(=O)N([C@@H](C)CO)C[C@H](C)[C@H](CN(C)Cc2ccncc2)O3)cc1
 : i	i	i	i
> C[C@@H]1CCCCO[C@H](CN(C)C(=O)c2ccncc2)[C@H](C)CN([C@@H](C)CO)C(=O)c2cc(NC(=O)Cc3ccccc3)ccc2O1
 : i	i	i	i
> COc1ccc([Si](C)(C)[C@H]2[C@H](CCO)O[C@@]3(C(=O)N(Cc4ccccc4)c4ccc(N5CCCCC5=O)cc43)[C@@H]2C)cc1
 : .	i	i	i
> COc1c(C)c(OCC=C(C)C)cc(CO)c1CO
 : .	i	i	i
> Cc1ccc(OCC(=O)Nc2ccc3oc(-c4c(F)c(F)c(F)c(F)c4F)nc3c2)cc1
 : i	i	i	i
> C/C(=C\C=C\[C@@H](C)[C@H]1CC[C@@]2(C)[C@@H]3CCC4C(C)(C)[C@@H](O[C@@H]5O[C@H](CO)[C@@H](O[C@@H]6O[C@@H](C)[C@H](O)[C@@H](O)[C@H]6O)[C@H](O)[C@H]5O[C@@H]5O[C@H](CO[C@@H]6O[C@H](CO)[C@@H](O)[C@H](O)[C@H]6O)[C@@H](O)[C@H](O)[C@H]5O[C@@H]5O[C@@H](C)[C@H](O)[C@@H](O)[C@H]5O)CC[C@@]45C[C@@]35CC[C@]12C)C(=O)N[C@@H]1C(=O)O[C@H](C)[C@@H]1C (some centres not stated)
 : i	i	i	i
> COc1ccc(S(=O)(=O)N(C)C[C@H]2Oc3ccc(NC(=O)CCC(F)(F)F)cc3CC(=O)N([C@H](C)CO)C[C@@H]2C)cc1
 : .	i	i	i
> Nc1nc(SCc2nc(-c3ccccc3)no2)[nH]c(=O)c1-c1ccccc1
 : i	i	i	i
> C[C@H](CO)N1C[C@H](C)[C@H](CN(C)Cc2ccc(C(F)(F)F)cc2)Oc2ccc(NC(=O)Cn3cnnn3)cc2CC1=O
 : i	i	i	i
> CCN1CCN(Cc2c(C)[nH]c3ccc(Cl)cc3c2=O)CC1
 : i	i	i	i
> C[C@H]1CN([C@@H](C)CO)C(=O)c2cc(NC(=O)c3ccncc3)ccc2O[C@@H]1CN(C)C
 : i	i	i	i
> NC(N)=NC(N)=NCCc1ccccc1
 : i	i	i	i
> CNC[C@@H]1Oc2ccc(NS(=O)(=O)c3ccccc3)cc2CC(=O)N([C@@H](C)CO)C[C@@H]1C
 : i	i	i	i
> Cc1cc(Br)ccc1NC(=O)C(=O)NCCCN1CCOCC1
 : i	i	i	i
> COCCOC(=O)N1C(=O)[C@@]2(c3cc(C#Cc4ccc(OC)cc4)ccc31)[C@H](C(=O)N1CCCCCCC1)[C@H]1C(=O)O[C@H](c3ccccc3)[C@H](c3ccccc3)N1[C@@H]2c1ccc(O)cc1
 : i	i	i	i
> CS(=O)(=O)CCC(C(=O)N1CCCCC1)N1C(=O)c2cc(Cl)c(Cl)cc2C1=O (configuration not stated)
 : i	i	i	i
> CC(C)[C@H]1c2ccc(F)cc2CC[C@@]1(CCN(C)CCCc1nc2ccccc2[nH]1)OC(=O)C1CC1
 : i	i	i	i
> Cc1noc(C)c1NC(=O)Nc1cccc2c1O[C@@H](CN(C)Cc1ccccc1)[C@H](C)CN([C@H](C)CO)C2=O
 : i	i	i	i
> CCO[C@@H]1OC(C(=O)Nc2ccccc2)=C[C@H](c2csc3ccccc23)[C@H]1CCCO
 : .	i	i	i
> C[C@@H]1CCCCO[C@H](CN(C)C(=O)Nc2ccc(F)cc2)[C@H](C)CN([C@H](C)CO)C(=O)c2cc(N(C)C)ccc2O1
 : .	i	i	i
> C[C@H]1CCCCO[C@H](CN(C)S(=O)(=O)c2ccc(F)cc2)[C@@H](C)CN([C@@H](C)CO)C(=O)c2cc(NC(=O)Nc3cccc4ccccc34)ccc2O1
 : .	i	i	i
> Cc1noc(C)c1NC(=O)N(C)C[C@@H]1OCCCC[C@@H](C)Oc2ccc(NS(=O)(=O)c3cccs3)cc2C(=O)N([C@@H](C)CO)C[C@H]1C
 : i	i	i	i
> Cc1sc(NC(=O)c2ccccc2)c(C(=O)NCc2cccnc2)c1C
 : i	i	i	i
> Cc1nnc(NC2(C(F)(F)F)C(=O)Nc3c2c(=O)n(C)c(=O)n3C)s1 (configuration not stated)
 : i	i	i	i
> CC(C)NC(=O)N(C)C[C@@H]1Oc2ccc(NC(=O)Nc3ccc(C(F)(F)F)cc3)cc2CC(=O)N([C@H](C)CO)C[C@@H]1C
 : .	i	i	i
> C[C@H]1O[C@@H](O[C@H]2C[C@H]3C(=O)C[C@]4(C)C(=CCC5[C@@]6(C)CC[C@H](O[C@@H]7OC[C@@H](O)[C@H](O)[C@H]7O)[C@@](C)(C=O)C6CC[C@]54C)[C@@H]3CC2(C)C)[C@H](O)[C@@H](O)[C@@H]1O[C@@H]1O[C@H](C(=O)O)[C@@H](O)[C@H](O)[C@H]1O (some centres not stated)
 : i	i	i	i
> C[C@@H]1CCCCO[C@H](CN(C)Cc2ccc3c(c2)OCO3)[C@H](C)CN([C@@H](C)CO)C(=O)c2cc(NS(=O)(=O)c3ccccc3)ccc2O1
 : i	i	i	i
> CNC[C@@H]1Oc2ccc(NC(=O)Cc3ccccc3)cc2CC(=O)N([C@@H](C)CO)C[C@@H]1C
 : i	i	i	i
> C[C@H](CO)N1C[C@H](C)[C@H](CN(C)C(=O)Nc2cccc3ccccc23)Oc2ccc(NC(=O)NC3CCCCC3)cc2CC1=O
 : i	i	i	i
> CNC[C@@H]1Oc2ccc(NC(=O)C3CC3)cc2C(=O)N([C@@H](C)CO)C[C@@H]1C
 : i	i	i	i
> CNC[C@@H]1Oc2c(NC(=O)c3ccc(-c4nccs4)cc3)cccc2C(=O)N([C@H](C)CO)C[C@@H]1C
 : i	i	i	i
> Cc1ccccc1NC(=O)CSc1nnc(C23CC4CC(CC(C4)C2)C3)o1
 : i	i	i	i
> C[C@@H]1CCCCO[C@@H](CN(C)C(=O)c2ccncc2)[C@H](C)CN([C@@H](C)CO)C(=O)c2cc(N(C)C)ccc2O1
 : i	i	i	i
> C[C@@H]1CN([C@H](C)CO)C(=O)c2cccc(NS(C)(=O)=O)c2O[C@H]1CN(C)C(=O)Nc1ccccc1
 : i	i	i	i
> C[C@@H]1CN([C@@H](C)CO)C(=O)c2cccc(NS(C)(=O)=O)c2O[C@@H]1CN(C)Cc1ccc(Cl)c(Cl)c1
 : i	i	i	i
> C[C@H]1CN([C@@H](C)CO)C(=O)Cc2cc(NC(=O)Nc3ccccc3)ccc2O[C@H]1CN(C)Cc1ccc(C(=O)O)cc1
 : i	i	i	i
> CCS(=O)(=O)N(C)C1c2cc(C#N)ccc2OC(C)(C)C1O (configuration not stated)
 : i	i	i	i
> COc1ccc(CN(C)C[C@H]2Oc3ccc(NC(=O)Nc4ccc(OC)cc4)cc3CC(=O)N([C@@H](C)CO)C[C@@H]2C)cc1
 : i	i	i	i
> Cc1noc(C)c1NC(=O)Nc1cccc2c1O[C@H](CN(C)Cc1ccc(Cl)c(Cl)c1)[C@@H](C)CN([C@@H](C)CO)C2=O
 : i	i	i	i

From PubChem
